Bioassay records as filed in PubChem BioAssay.
Mtb betalactam: beta-lactam sensitization of Mtb H37Rv | M. tuberculosis H37Rv growth with meropenem, percent inhibition; hits of this screen are not shown here | inhibition, % at 25 µM | 330,000 compounds, 0.27% hits | AID 434955;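 active = about 74% or more and at least 40 points above the plate without the antibiotic, then above 30% in a dose series; inconclusive = first-round hits that could not be retested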;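 also: growth measured after seven days incubation then overnight dye step; 0% = bacteria only wells and 100% = bacteria with antibiotic; twin plates without the antibiotic show which effects depend on it; some results filed as inactive read as strong as hits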
YopH inh: blocks Yersinia enterocolitica YopH tyrosine phosphatase; fluorescence Ex485/Em525; inhibition, %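 (about 10 µM by stock and volumes)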; 140,000 compounds, 0.16% hits; AID 898;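 active = inhibition of 50% or more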;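 also: controls were vehicle for no effect and minimum signal wells for full effect; inactives centre near -20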
Mtb H37Rv: M. tuberculosis H37Rv growth inhibitors, H37Rv strain (AID 1626) | one-dose inhibition, % at 10 µM; IC50 in µM for titrated hits | 220,000 compounds, 0.95% hits | M. tuberculosis H37Rv growth inhibition; higher % means a stronger effect;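 active = confirmed in a dose series; inconclusive = inhibition above 80% but not taken into the dose series; inactive = below 80% or under 30% at every dose of the series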;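 also: bacteria incubated seven days before Alamar blue readout; 0% = bacteria only wells and 100% = bacteria with antibiotic wells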
Arbovirus anti: blocks arbovirus infection. arbovirus infection cell-based antiviral screen. inhibition, % at 10 µM. 200,000 compounds, 0.37% hits. AID 1251;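 active = inhibition from about 30%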;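 also: bluetongue infection of BSR cells; cell survival read as ATP light after 72 h; 0% = infected wells without compound and 100% = uninfected wells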
RecA splice inh: inhibitors of M. tuberculosis RecA intein splicing. cell-free RecA intein splicing, fluorescence. inhibition, %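 (about 9 µM by stock and volumes)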. P9WHJ3. 290,000 compounds, 0.75% hits; in the data active = inhibition above about 30%; inconclusive = no clear call, values can overlap the other calls;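 also: 0% = vehicle wells and 100% = reference inhibitor control wells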
Target sequence (P9WHJ3 whole entry, looked up, canonical isoform): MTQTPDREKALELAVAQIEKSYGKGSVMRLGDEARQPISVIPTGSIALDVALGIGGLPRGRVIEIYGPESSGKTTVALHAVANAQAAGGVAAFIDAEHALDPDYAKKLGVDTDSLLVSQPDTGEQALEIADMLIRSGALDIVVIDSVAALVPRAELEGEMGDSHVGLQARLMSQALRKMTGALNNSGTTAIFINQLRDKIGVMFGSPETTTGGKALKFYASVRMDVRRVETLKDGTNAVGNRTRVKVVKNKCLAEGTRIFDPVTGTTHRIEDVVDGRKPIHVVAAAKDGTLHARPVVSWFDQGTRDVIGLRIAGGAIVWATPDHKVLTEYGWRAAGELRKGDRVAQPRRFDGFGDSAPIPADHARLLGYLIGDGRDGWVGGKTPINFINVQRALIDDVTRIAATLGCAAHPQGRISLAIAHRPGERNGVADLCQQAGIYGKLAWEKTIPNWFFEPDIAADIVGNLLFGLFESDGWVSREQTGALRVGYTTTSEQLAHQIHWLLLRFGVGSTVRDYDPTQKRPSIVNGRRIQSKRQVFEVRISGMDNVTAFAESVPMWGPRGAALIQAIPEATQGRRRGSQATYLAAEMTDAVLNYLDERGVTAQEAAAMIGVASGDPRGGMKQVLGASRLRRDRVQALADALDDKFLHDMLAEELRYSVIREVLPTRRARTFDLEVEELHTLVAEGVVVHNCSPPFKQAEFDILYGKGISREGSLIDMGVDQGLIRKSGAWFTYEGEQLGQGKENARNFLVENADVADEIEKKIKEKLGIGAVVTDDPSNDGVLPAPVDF
Arbovirus anti repeat: second read-out of Arbovirus anti, no call of its own (marks repeat the call); inhibition, %; measured here: 10K subset replicate screen; many hits read low in the repeat;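 first of two repeat runs on a subset; 0% = infected and 100% = uninfected wells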
The depositor's hits bear a star; ? = inconclusive; / = not tested or not shown. This is a subset, so the mix of outcomes need not match the whole.

SMILES	Mtb betalactam	YopH inh	Mtb H37Rv	Arbovirus anti	RecA splice inh	others
COC(=O)CSc1nc2[nH]ncc2c(=O)[nH]1	-4	/	-1%	3	-1.8
CCOC(=O)C1=C(C)OC(N)=C(C#N)C1c1cc(SCC)oc1C (stereo not given)	-6	/	-8%	-2	0.7
O=[N+]([O-])c1ccc(F)cc1OCc1nc(-c2cccs2)no1	/	/	8%	3	7.3
O=C(O)c1ccccc1N(c1ccccc1)c1ccccc1	0	/	/	/	11
CN(CC(=O)Nc1ccccc1Cl)C1CCCCC1	1	/	/	/	-3.6
Cc1cccc(N2C(=O)NC(=O)/C(=C/c3cc4c(cc3[N+](=O)[O-])OCO4)C2=O)c1	13	/	-1%	-3	-21
O=C(Cc1ccccc1)Nc1ccc(N2CCCC2)cc1	95	-7	-2%	-2	2.8
CCS(=O)(=O)N1Cc2ccccc2CC1C(=O)Nc1nc2c(C)cccc2s1 (stereo not given)	-1	-10	18%	7	7.8
S=C1NC2=C(CCCC2)C2(CCCCC2)N1	21	-18	4%	4	-1.6
COc1cccc(NC(=O)CC2Oc3ccccc3NC2=O)c1 (stereo not given)	-3	/	/	/	4.7
C/C(=N/NC(=O)c1cn(-c2cccc(C)n2)cn1)c1ccc(C)cc1	-4	-3	1%	-1	-0.1
COc1ccc(CNCc2ccncc2)cc1OC	0	/	/	/	2.2
COc1cc(/C=C2\N=C(C)OC2=O)cc(Cl)c1OC(C)=O	?	/	/	/	-4.6
O=C(NCCc1csc(-c2ccccc2)n1)c1cccs1	6	-41	12%	0	16	Arbovirus anti repeat=4
COc1ccccc1CNC(=O)C1Cc2ccccc2C(=O)O1 (stereo not given)	3	/	-6%	3	-0.5
OCC[C@@H]1C[C@@H](O)[C@H](O)[C@@]2(CCc3ccccc3CO2)O1	-7	/	/	/	-2.8
O=C(CC1C(=O)NCCN1CC(c1ccccc1)c1ccccc1)NCCc1cn[nH]c1 (stereo not given)	-1	/	0%	5	3.5
S=C1CN=C(c2ccccc2)c2cc(Cl)ccc2N1	1	-23	40%	-5	8.8
COc1ccc2cnn(-c3ccccc3C)c(=O)c2c1OC	-4	-38	0%	4	-5.7
Clc1ccc(CNCCc2ccc3c(c2)OCO3)cc1	4	/	/	/	1.5
CCOc1cc(C)ccc1OCc1nnc(SCC(=O)Nc2cccc(C(=O)O)c2)n1-c1ccccc1	-2	/	/	/	-0.5
CCOC(=O)C1CCCC(NS(=O)(=O)c2ccc(NC(C)=O)cc2)C1 (stereo not given)	4	-36	-6%	9	-1.8
COC(=O)CCC(=O)NNC(=O)CCC(=O)Nc1cccc(Cl)c1C	-8	/	3%	11	-0.6
C/C(=N\Nc1cc(Cl)nc(C)n1)c1ccc(Cl)c(Cl)c1	9	-42	0%	10	2.2
Cc1nnc(NC(=O)c2ccc(F)c(S(=O)(=O)N3CCCCC3)c2)s1	9	/	/	/	-2.4
Following part:
SMILES	Mtb betalactam	YopH inh	Mtb H37Rv	Arbovirus anti	RecA splice inh	others
CC(=O)c1sc2c(c1N)c(=O)[nH]c(=O)n2-c1ccccc1	-3	/	/	/	-1.6
Cc1cc(Cl)ccc1NC(=S)NCc1ccc(Cl)cc1	-7	-26	-3%	12	6.9
O=C(CC(c1ccccc1)c1ccccc1)Nc1ccc(C(=O)O)cc1	1	/	/	/	1.5
CC12CCC(C(=O)N(NC(=O)c3ccccc3Cl)C1=O)C2(C)C (stereo not given)	-3	-25	-2%	-1	-1.9
CCC1Oc2ccc(C)cc2N(CC(=O)NCCCN2CCN(Cc3ccccc3)CC2)C1=O (stereo not given)	4	-41	2%	-18	-0.5
COc1ccccc1C1SCCN1S(=O)(=O)c1cccc(C(F)(F)F)c1 (stereo not given)	4	-21	-1%	10	2.3
Cc1cc(C)nc(SCC(=O)Nc2ccc(S(=O)(=O)NC(C)(C)C)cc2)n1	-2	-18	-3%	0	-0.4
O=C(NC1CCCCC1)c1cc(-n2cnnc2)ccc1Cl	1	/	/	/	-2.1
O=S(=O)(NCc1cccnc1)c1ccc(Cl)nc1	2	44	-14%	5	-1.6
COc1cc(Nc2ncnc(N)n2)cc(OC)c1OC	-1	/	-9%	/	-0.5
O=C(Nc1c(C(=O)N2CCCCC2)cnn1-c1ccccc1)c1ccco1	8	-31	-11%	6	/	Arbovirus anti repeat=7
COc1ccc(N(CCCN2C(=O)c3cccc4cccc(c34)C2=O)C(=O)c2cccs2)cc1	1	4	3%	-6	/
Cc1ccc(N(C)S(=O)(=O)c2ccc(C)cc2)cc1	10	5	-2%	-15	6.2
CCN(C(=O)c1cn(C)c(=O)c2ccccc12)c1ccccc1F	-3	/	/	/	-0.1
Cc1cccc(Cn2c(NCC(C)O)nc3c2c(=O)n(C)c(=O)n3C)c1 (stereo not given)	1	-45	-12%	4	3.8
Cc1cc(-c2ccccc2)n2ncc(-c3ccccc3)c2n1	3	-13	8%	14	2.2
CCc1cc2c(=O)c(-c3nc4ccccc4n3C)c(COCC(=O)O)oc2cc1OC(=O)C(C)(C)C	0	-19	-4%	5	-24
Cc1ccc(C)c(-c2cc(C(=O)NNC(=S)NCC(C)C)c3ccccc3n2)c1	8	-16	1%	-20	-5.1
Cc1ccc(S(=O)(=O)n2cc(-c3ccccc3)c(N)n2)cc1	78	-65	1%	-17	-5.1
Cc1c(NC(=O)C(C#N)=C2CCCCC2)c(=O)n(-c2ccccc2)n1C	-6	-30	3%	4	0.5
COc1cccc(-n2c(SCC(=O)N3CCCCC3)nc3c([nH]c4ccccc43)c2=O)c1	3	/	/	-5	0.6
COc1ccccc1CNC(=O)CCS(=O)(=O)c1ccc(Cl)cc1	-1	/	/	/	-5.4
COc1ccc(OC)c(S(=O)(=O)NC2CCN(Cc3ccccc3)CC2)c1	-1	-12	0%	2	-0.1
O=C(CSc1nnc(-c2cccs2)n1-c1ccccc1)c1ccc2c(c1)OCCO2	-4	/	0%	/	3.4
c1ccc(OCc2nc(-c3cccs3)no2)cc1	4	-12	13%	-4	1.8

In the list so far, two contain a cyano group.
SMILES	Mtb betalactam	YopH inh	Mtb H37Rv	Arbovirus anti	RecA splice inh	others
CCOC(=O)C1=C(C)OC(N)=C(C#N)C1c1cc(SCC)oc1C (stereo not given)	-6	/	-8%	-2	0.7
Cc1c(NC(=O)C(C#N)=C2CCCCC2)c(=O)n(-c2ccccc2)n1C	-6	-30	3%	4	0.5

More structures
SMILES	Mtb betalactam	YopH inh	Mtb H37Rv	Arbovirus anti	RecA splice inh	others
CCC1Oc2ccc(C)cc2N(CC(=O)NCCCN2CCCCC2CC)C1=O (stereo not given)	0	-19	10%	-2	-3.9
COc1cc(C(=O)NCc2ccccc2)cc(Br)c1OC	7	-36	2%	0	-0.7
CC1CCC2(CC1)OCC1(CCC3(COC4(CCC(C)CC4)OC3)C1=O)CO2 (stereo not given)	-1	/	-1%	15	-1.5
COc1cc(OC)c(-n2c(C)cc(C=O)c2C)cc1Cl	21	-15	-2%	1	/
C/C(=N/NC(=O)CNC(=O)c1ccncc1)c1ccco1	-8	/	-3%	/	-1.0
CCC1=C(OC(=O)N(CC)CC)N2C(=O)OC(=NCc3ccccc3)[C@]2(C)[C@H]2C1=CC[C@H]1C(=O)N(CC(=O)OC)C(=O)[C@H]12	1	/	7%	/	1.6
COC(=O)c1c(C(=O)OC)c2n(c1C)Cc1ccccc1C2	1	-33	-6%	-3	-2.6	Arbovirus anti repeat=-3
CCN1CSC(=S)N(Cc2ccc(OC)cc2)C1	99	/	2%	/	17
CCOC(=O)c1sc2ccccc2c1NC(=O)c1coc2ccccc2c1=O	/	-41	6%	7	-1.5
CC(C)[N+]1=C2C=CC=CC=C2SC12C([N+](=O)[O-])=CC(=[N+]([O-])[O-])C=C2[N+](=O)[O-] (stereo not given)	6	/	-6%	/	0.4
CC12CCC(=O)N1C(C(=O)Nc1ccc(F)cc1)CS2 (stereo not given)	-13	/	/	/	2.2
Cc1c(C)n(C)c2ccc(C(=O)N3CCN(c4ccccn4)CC3)cc12	6	/	/	/	0.0
O=C(NN=C1CCCC1)c1cc(O)cc(O)c1	-2	/	/	/	-0.4
O=C(COc1ccc(Br)cc1)N1CCC(c2ccccc2)C1 (stereo not given)	98	-19	27%	8	6.8
COc1ccc(NS(=O)(=O)c2ccc(N3CCOCC3)c(NC(=O)c3ccc(OC)cc3)c2)cc1	1	-17	3%	-12	1.8
CCN(CC)CCn1c(NCc2cccc(OC)c2)nc2ccccc21	10	-8	-10%	14	-1.7
O=C(NNC(=O)C1[C@H]2CCCC[C@@H]12)c1ccc(=O)oc1 (stereo not given in full)	-5	/	6%	/	0.2
Cc1nc2ccccc2c(=O)n1-c1ccc(F)cc1	-12	-30	-13%	-6	3.9	Arbovirus anti repeat=1
O=C(CCNC(=O)c1ccc(Br)o1)NCc1ccc(Cl)cc1	-1	-32	-1%	6	2.1
O=C(COc1ccccc1)Nc1nc2c(s1)CCCC2	-2	/	/	/	-2.6
CCOc1ccccc1NC(=O)c1nc(S(=O)(=O)Cc2cccc(C)c2)ncc1Cl	-5	/	/	/	7.5
CCN1CCN(C(=S)Nc2ccc(Cl)cc2Cl)CC1	-11	-2	-1%	5	-1.8
O=C(CSc1nnc(-c2ccco2)n1-c1ccccc1Cl)Nc1cccc(C(=O)O)c1	6	/	/	/	1.0
O=C(NP(=O)(N1CCCC1)N1CCCC1)C1=C(N2CCOCC2)/C(=C/c2cccc([N+](=O)[O-])c2)CC1	0	/	5%	1	0.4
CC(C)Cn1c(N)c(C(=O)CSc2ccccc2)c(=O)n(C)c1=O	3	-9	-1%	1	0.2

Molecules listed so far with bromine, in the order listed:
SMILES	Mtb betalactam	YopH inh	Mtb H37Rv	Arbovirus anti	RecA splice inh	others
COc1cc(C(=O)NCc2ccccc2)cc(Br)c1OC	7	-36	2%	0	-0.7
O=C(COc1ccc(Br)cc1)N1CCC(c2ccccc2)C1 (stereo not given)	98	-19	27%	8	6.8
O=C(CCNC(=O)c1ccc(Br)o1)NCc1ccc(Cl)cc1	-1	-32	-1%	6	2.1

Next section
SMILES	Mtb betalactam	YopH inh	Mtb H37Rv	Arbovirus anti	RecA splice inh	others
COc1ccc(OC)c(/C=C/C(=O)Oc2ccc(C(C)=O)cc2)c1	7	/	/	/	-3.6
COc1cc2c(cc1OC)C(C(=O)NC1CC1)C1c3ccccc3CCN1C2=O (stereo not given)	-4	-5	4%	2	4.4	Arbovirus anti repeat=2
O=C(CNC(=O)c1cccs1)OCc1ccc(Cl)cc1	-2	/	/	/	-1.8
Cc1ccccc1NC(=O)CC1c2ccccc2CC(C)(C)N1C (stereo not given)	4	/	-11%	6	-8.4
CCCNC(=O)COC(=O)c1[nH]c(C)c(C(=O)OCC)c1C	6	-13	-7%	14	0.7
COc1ccc(CNC(=O)c2ccc(N3CCCC3=O)cc2)cc1	-1	-13	-13%	1	-1.6
O=C(CCN1C(=O)/C(=C/c2ccccc2F)SC1=S)N[C@@H](CO)Cc1ccccc1	26	/	/	/	6.0
COc1ccc(NC(=S)NCCc2c(C)[nH]c3ccc(OC)cc23)cc1	2	/	-2%	0	-0.9
COCCNC(=O)c1cccc(OC2CCN(Cc3ccc(Cl)c(F)c3)CC2)c1	3	/	/	/	0.6
CC(C)COC(=O)c1cc(-c2ccc(/C=N/n3cnnc3)o2)ccc1Cl	-17	-22	-4%	0	12
CCn1cc(C(=O)NCCCN2CCC(C)CC2)c(=O)c2cc(S(=O)(=O)N(C)C3CCCCC3)ccc21	2	/	/	/	-7.0
CCOC(=O)c1cccc(NS(=O)(=O)c2c(C(=O)N3CCCCCC3)c(C)n(C)c2C)c1	-2	/	/	/	1.0
Cc1ccc(NC(=O)c2ccccc2O)cc1	-3	-37	-4%	11	1.7
COc1ccc(C(c2nnnn2C2CCCC2)N2CCc3ccccc3C2)cc1OC (stereo not given)	/	-3	0%	-5	4.0
Fc1cccc(F)c1CN1CCN(c2ccc(Cl)cc2)CC1	0	/	/	/	3.4
Oc1cccc(C=Nc2cccc3ccccc23)c1O	60	/	/	/	31*
CC(C)Oc1ccc(C2CC(=O)N(c3ccccc3)C2=O)cc1 (stereo not given)	-7	-17	1%	1	-0.6
CCCNc1nc2c(c(=O)[nH]c(=O)n2C)n1CCC(C)C	-6	-33	-12%	3	-0.2

Of the compounds above, two have a tert-butyl group:
SMILES	Mtb betalactam	YopH inh	Mtb H37Rv	Arbovirus anti	RecA splice inh	others
Cc1cc(C)nc(SCC(=O)Nc2ccc(S(=O)(=O)NC(C)(C)C)cc2)n1	-2	-18	-3%	0	-0.4
CCc1cc2c(=O)c(-c3nc4ccccc4n3C)c(COCC(=O)O)oc2cc1OC(=O)C(C)(C)C	0	-19	-4%	5	-24

Already shown: 2 of the compounds above.
SMILES	Mtb betalactam	YopH inh	Mtb H37Rv	Arbovirus anti	RecA splice inh	others
CC(C)Oc1ccc(C2CC(=O)N(c3ccccc3)C2=O)cc1 (stereo not given)	-7	-17	1%	1	-0.6
CCCNc1nc2c(c(=O)[nH]c(=O)n2C)n1CCC(C)C	-6	-33	-12%	3	-0.2
